NPYLR7 agonist: activates Aedes aegypti NPYLR7 receptor | activation, % at 10 µM | 0.15% of 270,000 active | AID 1259423 | HEK293T NPYLR7/Galpha15, GCaMP6s calcium fluorescence; in the data active means activation above about 40%;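 further: 0% = vehicle and 100% = reference agonist at the receptor; some compounds past the cut are filed as inactive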
NPYLR7 agonist max-min: recorded beside NPYLR7 agonist, whose call it bears; activation, %; measured here: Max-Min RFU normalised activation; some inactives read as strong as hits;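 span of the calcium signal over five minutes; 0% = vehicle and 100% = native peptide agonist; compound fluorescence can raise it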
* hit, by the source's call; & = joins results of further samples. An excerpt; the hit share may differ from the screen's.

SMILES	NPYLR7 agonist	NPYLR7 agonist max-min
CCOCc1nc2c(c(=O)[nH]1)C1(CCCC1)Cc1ccccc1-2	-1	2
CC(C)(C)c1ccc(-c2cc(NCCc3ccccn3)n3nccc3n2)cc1	0	-1
CCCCC(=O)Nc1ccc(-n2cnnc2)cc1	7	1
CCN1C(=S)NC(c2cccc(NC(=O)COc3ccccc3)c2)C(C(=O)OCCOC)=C1C (stereo not given)	10	8
Nc1ccc(S(=O)(=O)Nc2nccnc2Cl)cc1	18	7
CNC(=O)[C@H]1CN(C(=O)c2ccc(OC)c(OC)c2)[C@]2(C)C(=O)N(CCO)c3ccccc3[C@H]12	22	32
Cc1ncsc1CCC(=O)N1CCC2(CCNCC2)CC1	6	3
Fc1ccc(-c2[nH]ncc2CNC2COc3ccccc3C2)cc1 (stereo not given)	-1	-4
COCC1CCCN(C(=O)c2ccc(-c3cc(Cl)ccc3Cl)nc2)C1 (stereo not given)	0	-4
CCc1nnc(NS(=O)(=O)c2ccccc2F)s1	12	9
O=C(Cn1nc2c(c1NC(=O)c1cccs1)CSC2)NCCc1ccccc1	-6	3
OC1(c2ccco2)CSC(=Nc2cccnc2)N1C1CC1 (stereo not given)	-3&-1	-7&-1
Cc1ccc(C(=O)CN2C(=O)c3ccccc3S2(=O)=O)cc1C	1	9
O=C(NCCCO)c1c(O)c2ccccc2[nH]c1=O	-2	-9
Cc1ccn2c(NC(=O)COc3ccc(Cl)cc3)c(-c3ccccc3)nc2c1	-5	0

Fetched by compound from the entries so far, 6 records:
SMILES	NPYLR7 agonist	NPYLR7 agonist max-min
Fc1ccc(-c2[nH]ncc2CNC2COc3ccccc3C2)cc1 (stereo not given)	-1	-4
CCc1nnc(NS(=O)(=O)c2ccccc2F)s1	12	9
CCOCc1nc2c(c(=O)[nH]1)C1(CCCC1)Cc1ccccc1-2	-1	2
Cc1ccn2c(NC(=O)COc3ccc(Cl)cc3)c(-c3ccccc3)nc2c1	-5	0
O=C(NCCCO)c1c(O)c2ccccc2[nH]c1=O	-2	-9
CCCCC(=O)Nc1ccc(-n2cnnc2)cc1	7	1

(listing goes on)
SMILES	NPYLR7 agonist	NPYLR7 agonist max-min
O=C(C1=Cc2ccccc2OC1)N1CCCC(c2ccn[nH]2)C1 (stereo not given)	-2	-2
COc1cccc(-c2nnn(CC(=O)N3CCOCC3)n2)c1	10	6
CCN1C(=O)C(=CC2=Cc3ccc(OC)cc3OC2)SC1=S	1	2
COc1cccc(OC)c1C(=O)Nc1c(C)nc2cc(C)ccn2c1=O	4	0
Cc1ccccc1-c1ccc2nnc(-c3cscn3)n2c1	4	0
O=C(Cn1ncc2ccccc21)N1CCCC1c1ccncc1 (stereo not given)	-3	722
O=C(NCc1ccccc1)N1CCC(c2nnc(C3CC3)s2)CC1	0	1
CCOC(=O)C1CCCN(C(=O)c2csc(COc3cc(Cl)ccc3Cl)n2)C1 (stereo not given)	22	25
CN1CCC(CNS(=O)(=O)Cc2ccc(Cl)cc2)CC1	-2	-3
CC1CCc2c(sc(NC(=O)c3ccc(Cl)cc3)c2C#N)C1 (stereo not given)	-7	-11
CN(C(=O)Nc1c[nH]c2ccccc12)c1ccccc1	5	1
Cc1cc(C)n(-c2nc3c(c(=O)n2CC(=O)N2CCN(c4ccccc4)CC2)CCCC3)n1	-9	-13
CC(C)(C)OC(=O)N1CCN(CCCNc2ncccc2C#N)CC1	0	-4
OC(Cn1cncn1)(c1ccccc1)c1ccncc1 (stereo not given)	1	46
COc1ccccc1Oc1cnn(C)c(=O)c1Nc1cccc(C(=O)NCc2ccncc2)c1	11	11

Some values from the results shown:
Under NPYLR7 agonist, O=C(Cn1ncc2ccccc21)N1CCCC1c1ccncc1 (stereo not given) shows -3
Under NPYLR7 agonist max-min, CN1CCC(CNS(=O)(=O)Cc2ccc(Cl)cc2)CC1 shows -3

Continuation.
SMILES	NPYLR7 agonist	NPYLR7 agonist max-min
C1=CC[C@H]2CN(c3ncnc4nc[nH]c34)C[C@H]2C1	12	11
c1ccc(Cc2noc(-c3ccc(NCCc4cscn4)nc3)n2)cc1	-3	-8
CCOCCn1c(CN2CCC(Cc3ccccc3)CC2)nc2c1c(=O)n(C)c(=O)n2C	4	1
Cc1nnc(CN(C)Cc2nc(-c3cccc(Oc4ccccc4)c3)oc2C)o1	4	9
CCCn1cc(C(=O)NCC(OC)OC)c2nn(-c3ccccc3)c(=O)c-2c1	2	0
Cc1cccc(-c2noc(CN(C)C(=O)c3scc4c3OCCO4)n2)c1	2	-9
CS(=O)(=O)N1CCCC(C(=O)Nc2ccccc2N2CCc3sccc3C2)C1 (stereo not given)	3	-1
COc1ccc(CN(C)C(=O)C2CCC(=O)N(CCN3CCOCC3)C2)c2cccnc12 (stereo not given)	0	-3
COc1ccc(C(=O)N2CCC3(CC2)OCC(C(=O)NC2CC2)N3C(=O)c2cccc(C)c2)cc1 (stereo not given)	-1	2
Cc1ccc(C2(C(=O)N3CCCC(N(C)C)CC3)CC2)cc1 (stereo not given)	21	19
CCn1cc(C(CC(=O)NCc2ccccn2)c2cc(OC)cc(OC)c2)c2ccccc21 (stereo not given)	3	13
O=c1cc(CSc2nnc(C3CC3)o2)nc2sccn12	3	1
COc1cccc(OCC2c3ccsc3CCN2C(=O)CN(C(=O)Nc2cccc(Cl)c2)C(C)C)c1 (stereo not given)	-3	0
Cc1cc(C)nc(SCc2cc(=O)c(OC(=O)Cc3ccc([N+](=O)[O-])cc3)co2)n1	-11	-12
O=C(CSc1nnc(C2CC2)n1Cc1ccco1)c1ccc(Cl)c(Cl)c1	3	4

Record cards (already shown).
Entry for COc1cccc(OCC2c3ccsc3CCN2C(=O)CN(C(=O)Nc2cccc(Cl)c2)C(C)C)c1 (stereo not given) → NPYLR7 agonist = -3; NPYLR7 agonist max-min = 0
Entry for COc1ccc(CN(C)C(=O)C2CCC(=O)N(CCN3CCOCC3)C2)c2cccnc12 (stereo not given) → NPYLR7 agonist = 0; NPYLR7 agonist max-min = -3

Some of these compounds in order of number of heavy atoms, low to high.
SMILES	NPYLR7 agonist	NPYLR7 agonist max-min
C1=CC[C@H]2CN(c3ncnc4nc[nH]c34)C[C@H]2C1	12	11
Cc1cccc(-c2noc(CN(C)C(=O)c3scc4c3OCCO4)n2)c1	2	-9
CS(=O)(=O)N1CCCC(C(=O)Nc2ccccc2N2CCc3sccc3C2)C1 (stereo not given)	3	-1

Following part.
SMILES	NPYLR7 agonist	NPYLR7 agonist max-min
CC(=O)Nc1ccc(CN(C)c2c(C)nc3ccc(C(=O)NCCCn4ccnc4)cn23)cc1	7	-7
Cc1ccccc1Cn1cnc(-c2ccc(F)cc2)cc1=O	-13	-18
Cc1nn(CC(=O)N2CCOCC2)c(=O)c2c1cnn2-c1ccccc1	8	7
CCCNC(=O)c1cc(-c2ccc(F)cc2)n(-c2ccc(C)cc2)c1C	-3	8
CCCc1cnc(C)nc1N1CCC(F)(F)CC1	1	5
O=C(CSc1nnc(-c2ccccc2)n1-c1ccccc1)N/N=C\c1ccccc1C(F)(F)F	-4	-12
Cc1cc(NC2CCN(c3ccccn3)CC2)nc(C(C)C)n1	6&8	8&3
COc1ccc(Cl)cc1C(=O)Nc1cccc(Cl)c1S(C)=O (stereo not given)	0	-2
CC1(C(=O)O)CCN1C(=O)c1ccccc1F (stereo not given)	2	3
c1nc(NC2CCCC2)c2nc3n(c2n1)CCCCC3	1	-2
COc1ccc2[nH]c3c(c2c1)CCN(C(=O)c1ccc(S(=O)(=O)N=CN(C)C)cc1)C3C(C)Cc1ccc2c(c1)OCO2 (stereo not given)	9	-2
Nc1cc(N)nc(SCC(=O)Nc2cccc(N3CCCC3=O)c2)n1	-7	7
CSc1ccc(NS(=O)(=O)c2cc(C(=O)O)sc2Br)cc1	16	10
Cc1cc(C(=O)Nc2ccc(Cl)c(S(=O)(=O)N(C)C)c2)c2ccccc2n1	5	4
O=S(=O)(Nc1nc2n(n1)C(c1ccccc1)CC(c1ccccc1)=N2)c1ccccc1 (stereo not given)	25	14
O=c1c(N=Nc2ccccc2[N+](=O)[O-])c(-c2ccccc2)[nH]n1-c1ccccc1	1	-5
Cc1ccccc1-c1ncc(CN2CCn3cncc3C2)s1	5	1
O=S(=O)(NCCOc1ccc(-c2ccco2)nn1)c1ccc2ccccc2c1	-4	-4
CCCc1cnc(C)nc1N1CCOCC(CN(C)C)C1 (stereo not given)	-7	-14
COCCN(Cc1cccnc1)c1nc(N(C)C)cc(C(F)(F)F)n1	12	5
c1ccc2oc(N3CCN(Cc4ccc(C5CCCCO5)o4)CC3)nc2c1 (stereo not given)	-3	-3
COc1ccc(S(=O)(=O)NCCNc2nc(C)nc3sccc23)cc1	-3	-4
COc1ccc(S(=O)(=O)NC(=O)C2(C)CCN2C(=O)Cc2ccccc2Cl)cc1OC (stereo not given)	8	3
Cc1ccc(C(=O)NCc2ccc(N3CCCC3=O)cc2)cc1S(=O)(=O)N1CCCCC1	-2	2
CSc1nc2ncc3c(=O)n(-c4ccccc4F)ccc3n2n1	0	4
CCC(C)N(Cc1cccc(OS(=O)(=O)CC)c1)C(=O)c1cc(C(F)(F)F)cc(C(F)(F)F)c1 (stereo not given)	-7	-1
CSc1ccccc1C(=O)N1CCOC(Cc2cccc(F)c2)C1 (stereo not given)	3	-1
Cc1ccc2nc(C)c(NC(=O)c3ccc4ccccc4n3)c(=O)n2c1	2	1
Cc1ncc(-c2ccc(NC(=O)NCCc3nccs3)cc2)o1	11	7
COc1ccc(OCC2CN(C(=O)c3cccc(OC(F)F)c3)CCO2)cc1 (stereo not given)	3	-4
CCCc1c(C(=O)OCC)c2cc(NS(C)(=O)=O)ccc2n1S(C)(=O)=O	-6	-11
O=C(NCCc1cccs1)Nc1cccc2[nH]c([C@H]3C[C@H](O)[C@@H](CO)O3)nc12	9	13
O=S(=O)(Nc1ccc(Cl)cc1F)c1ccc(Cl)s1	0	-1
CC(=O)Nc1cc(C(=O)CCl)ccc1O	1	-8
O=C1CN(Cc2cn(-c3ccc(F)cc3)nc2-c2ccccc2Cl)CCN1	1	1
O=c1c(SCc2ccc(Cl)cc2)nccn1-c1ccc2c(c1)OCCO2	-2	0
COC(=O)c1ccc(C(=O)NC2(c3ccc(Br)cc3)CC2)nc1	6	3
CC(C)C(=O)NC(=S)Nc1nc2ccc(Cl)cc2s1	-3	-9
CCOC(=O)c1cc(NC(=O)CSc2ncnc3sccc23)cc(C(=O)OCC)c1	-6	-12
CN1CCN(C(C(=O)O)c2ccccc2)CC1 (stereo not given)	-7	-6
Cc1ccccc1C(=O)N1CCC2(CC1)SCCN2C(=O)/C=C/c1ccccc1	-6	-1
COC(=O)C1C(=O)NCC1c1ccc(C)cc1 (stereo not given)	2	4
CC1SC(c2ccc3c(c2)OCO3)N(Cc2ccco2)C1=O (stereo not given)	9	8
CC1=CC(=NNC(=O)c2sc(-c3ccc(Cl)cc3)cc2N)CC1	1	1
Cc1ccc(NCCNS(=O)(=O)c2ccc3cccc4c3c2CC4)nn1	-16	-22
N#CCC(=O)Nc1ccc(C(=O)N2CCN(c3ccc(F)cc3)CC2)cc1	7	5
FC(F)(F)c1cccc(CCC2CCCN(Cc3cnc[nH]3)C2)c1 (stereo not given)	7	5
Cc1onc(-c2c(Cl)cccc2Cl)c1C(=O)NC1CCCCCCC1	8	7
O=S(=O)(c1ccccc1)N1C[C@H](O)[C@@H](N2CCN(c3cnccn3)CC2)C1	-1	-6
CC(=O)c1cc2cc(Cl)cc(Cl)c2oc1=O	3	1
O=C(NCc1ccco1)c1cc2c(=O)n3ccccc3nc2s1	12	3
NNC(=O)c1n[nH]nc1Br	-6	-6
CCOC(=NCc1ccccc1)NC(=O)c1cccc(C)c1	20	28
O=C(CSc1nc2[nH]ncc2c(=O)[nH]1)Nc1ccc(F)cc1	-2	-4
C=CCN(CC(=O)N(CCc1ccc(OC)c(OC)c1)Cc1ccc(C)o1)C(=O)C1CCCC1	13	12
CC(=O)N1CCC(NC(=O)C2CCN(S(=O)(=O)c3c(C)c(C)cc(C)c3C)CC2)CC1	1	2
CCc1cccc2c(C(CC(=O)NCCc3ccccn3)c3ccc(OC)cc3OC)c[nH]c12 (stereo not given)	4	7
Cc1ccccc1C(=O)OCCN1C(=O)c2cccc3c(N4CCCCC4)ccc(c23)C1=O	-22	-25
CCC(=O)N1CCCC(OCc2ccc(F)cc2F)C1 (stereo not given)	-10	-4
C=CC1CC(=O)C=CN1C(=O)Oc1ccccc1 (stereo not given)	-2	-4
New compounds follow.
SMILES	NPYLR7 agonist	NPYLR7 agonist max-min
CC(C)C[C@@H](NC(=O)C1=C[C@@H](NS(=O)(=O)c2cccc(C(F)(F)F)c2)[C@@H](O)[C@H](O)C1)C(N)=O	-12	-16
CC(c1nc2ccccc2c(=O)n1-c1cccc(Cl)c1)N(Cc1ccccc1)C(=O)Nc1ccc(Cl)cc1Cl (stereo not given)	15	22
O=C(NNS(=O)(=O)c1ccc(F)c(F)c1)c1cncn1-c1ccc(F)cc1	7	1
O=C(c1sccc1-c1ccccc1)N1CCN(S(=O)(=O)c2ccc(F)c(Cl)c2)CC1	-11	-12
Cc1ccc(NC(=O)c2c(NC(=O)c3ccccc3)sc3c2CCCC3)cc1C	18	8
O=S(=O)(Nc1ccccc1F)c1cccs1	3	-1
COc1cccc(CCNC(=O)/C=C/c2ccc3c(c2)OCO3)c1	-8	-11
CC(C)C(=O)NCCn1nc(-c2cccs2)ccc1=O	4	1
COc1cccc(-c2nccc3[nH]nc(-c4cccc(OC(F)(F)F)c4)c23)c1	-1	2
COc1ccc(C(=O)N2CCN(C(C(=O)N3CCSCC3)C3CCCC3)CC2)cc1OC (stereo not given)	3	24

Screening results as filed in PubChem BioAssay.
